Screens deposited in PubChem BioAssay by National Center for Advancing Translational Sciences (NCATS).
Rango complex inh – inhibitors of Rango-importin beta complex formation | Rango CFP/YFP FRET sensor + importin beta, 45 min | Potency, µM (highest dose often 92.2 µM), for the others: top-dose inhibition of complex formation | 340,000 tested, 0.031% active | AID 540263; active = rising FRET ratio curve, often small or poorly fitted; inconclusive = mostly compound fluorescence or quenching in the first reads; inactive = flat curves in all reads;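 further: potency means the concentration at half of the fitted maximal effect; 0% = DMSO wells and 100% = buffer wells lacking importin beta; nearly all actives have a fitted effect of over 15% in size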
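FRET biosensor Rango (snurportin 1 IBB between N-terminal EYFP and C-terminal Cerulean), 50 nM in PBS/1 mM DTT/0.02% Tween-20/0.1% BSA, preincubated 5 min RT with compound; 0.125 microM importin beta added, 45 min RT, CFP/YFP FRET ratio read.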
miR-21 FLuc – miR-21 reporter, rising signal. HeLa miR-21 FLuc reporter, luciferase, 48 h. Potency, µM (series often up to 38.3 µM), inactives show at the top dose reporter change, positive = more light. 340,000 tested, under 10 active; active = well fitted rising curve with a large enough effect; inconclusive = small, poorly fitted or top-dose-only effect; inactive = no such curve, though single readings can be large or run the other way;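 further: % of control where 0% means no effect; miR-21 action dims this reporter so a rising signal means less miR-21 action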
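Compounds were titrated across several concentrations (up to approximately 40 uM) and incubated 48 hours with HeLa miR-21-FLuc reporter cells (miR-21 target sequence downstream of FLuc, endogenous miR-21). Readout was firefly luciferase luminescence after lytic detection reagent.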
Rango release inh – inhibitors of RanGTP-induced Rango-importin beta complex dissociation; Biochemical FRET Rango-importin beta, RanGTP-induced dissociation; Potency, µM (series often up to 46.1 µM), inactives show top-dose activity change, negative = inhibition; 340,000 tested, 0.071% active; AID 540253; active means falling FRET ratio curve, often poorly fitted, with flat reads before Ran was added; inconclusive means other falling curves, or compound fluorescence or quenching; inactive means flat or rising ratio curve;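 further: potency means the concentration at half of the fitted maximal effect; % of control where 0% means no effect; nearly all actives have a fitted effect of over 45% in size; -100% = wells without RanGTP and RCC1; the record marks most hits as doubtful in a second field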
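Two FRET readings bracket the reaction: one 5 min after compound meets Rango–importin beta, another 45 min after RanGTP-RCC1 (0.6 uM Ran, 0.2 uM RCC1, 2 mM GTP) is added. Only the second defines inhibition.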
GLA inh pH 4.5 – alpha-galactosidase A (human) inhibition, pH 4.5 | P06280 | activity change, negative = inhibition, % at 105 µM | purified enzyme, 4-MU-alpha-Gal fluorescence, pH 4.5 | 230,000 tested, under 10 active; inconclusive = small, poorly fitted or top-dose-only inhibition, or a rising curve; inactive = flat fitted curve, though single readings scatter; no compound was filed as active;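 further: 0% = full activity with enzyme and -100% = basal without enzyme; dose as in the result columns while the protocol names 77 µM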
Target sequence (P06280 whole entry, looked up): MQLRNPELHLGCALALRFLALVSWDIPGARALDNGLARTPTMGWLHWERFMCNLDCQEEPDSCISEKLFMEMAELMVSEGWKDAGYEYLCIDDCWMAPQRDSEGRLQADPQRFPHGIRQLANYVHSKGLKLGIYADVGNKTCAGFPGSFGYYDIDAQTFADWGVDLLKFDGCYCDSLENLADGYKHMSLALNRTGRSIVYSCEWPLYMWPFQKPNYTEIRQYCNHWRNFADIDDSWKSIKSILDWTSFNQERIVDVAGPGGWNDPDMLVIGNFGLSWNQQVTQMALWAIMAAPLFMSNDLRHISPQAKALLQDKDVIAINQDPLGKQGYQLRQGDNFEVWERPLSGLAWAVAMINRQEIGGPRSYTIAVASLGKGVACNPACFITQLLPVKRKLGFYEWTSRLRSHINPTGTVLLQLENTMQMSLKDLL
* = called active by the depositor; ? = inconclusive; . = no result given; & = joins results of further samples.

Rango complex inh,canonical_smiles,miR-21 FLuc,Rango release inh,GLA inh pH 4.5
1.2%,COc1ccc(-c2nnn(CC(=O)NC3CCCc4ccccc43)n2)cc1OC (configuration not stated),-5%,-1%,11
2.9%,O=C(NCc1ccco1)C1CCCN(S(=O)(=O)c2cccc3nsnc23)C1 (configuration not stated),-8%,-1%,-16
8.2%,NNC(=O)c1cc(Br)cs1,-2%,14%,5
2.0%,CCCCCCCCn1ccc(=N)cc1,?,6%,-5
-0.4%,O=C(NC1CCCC1)c1ccc(Br)s1,-25%,1%,6
-2.8%,CCOC(=O)c1c(NC(=O)COC(=O)Cn2cnc3ccccc32)sc2c1CCC(C)C2 (configuration not stated),-14%,-13%,-2
2.2%,COc1ccccc1NC(=O)c1ccc(S(=O)(=O)N2CCC(C)CC2)cc1,9%,5%,.
-4.0%,COc1ccc(C(=O)COC(=O)Cn2nnc3ccccc32)cc1Br,-7%,3%,1

Two compounds drawn at random from those above:
Rango complex inh,canonical_smiles,miR-21 FLuc,Rango release inh,GLA inh pH 4.5
-2.8%,CCOC(=O)c1c(NC(=O)COC(=O)Cn2cnc3ccccc32)sc2c1CCC(C)C2 (configuration not stated),-14%,-13%,-2
2.2%,COc1ccccc1NC(=O)c1ccc(S(=O)(=O)N2CCC(C)CC2)cc1,9%,5%,.

The list goes on.
Rango complex inh,canonical_smiles,miR-21 FLuc,Rango release inh,GLA inh pH 4.5
1.4%,CC(=O)Oc1ccccc1/C=C/c1nc2ccccc2c(=O)o1,24%,-7%,.
-1.3%,COC(=O)Nc1nnc(CC(=O)Nc2ccccc2C)s1,-8%,1%,-12
-3.8%,O=C1c2ccccc2S(=O)(=O)c2cc(C(=O)N3CCN(C(=O)c4ccccc4)CC3)ccc21,.,-10%,.
-1.0%,Cn1c(-c2csc(-c3ccccc3)n2)n[nH]c1=S,-53%,-2%,-1
?,COc1cccc(C2c3[nH]c4ccccc4c3C[C@H]3C(=O)N(c4ccccc4C(=O)N4CCC(C(=O)O)CC4)C(=O)N23)c1 (some centres not stated),3%,?,.
1.5%,COC(=O)c1c(-c2ccc(C(C)(C)C)cc2)csc1NC(=O)C1C2CCC(O2)C1C(=O)O (configuration not stated),3%,-7%,-29
0.1%,Cc1nnc(N2CCOCC2)c2nn(-c3cccc(Cl)c3)c(C)c12,-9%,47%,-6
-2.1%,CCOC(=O)N1CCN(c2c(F)cc3[nH]c(=S)[nH]c3c2Br)CC1,9%,0%,-13
5.9%,CC1Oc2ccccc2N(CC(=O)NC2CC2)C1=O (configuration not stated),-1%,20%,.
?,O=C(Oc1cc2oc(=O)cc(-c3ccccc3)c2cc1Cl)C1CCCCC1,20%,?,8
?,O=C(O)c1cccc(N/N=C/c2cccc3ccccc23)c1,-73%,-12%,.
-0.7%,Cc1ccc(NC(=O)CSc2nnc(C)c(=O)n2N)cc1Cl,-2%,?,.
-1.1%,CCCCN1CC(COCc2ccccc2)Oc2cccc(F)c2S1(=O)=O (configuration not stated),.,-4%,.
-1.3%,Cc1cc(Cl)ccc1OCCCC(=O)Nc1ccc(S(=O)(=O)Nc2ncccn2)cc1,-9%,-18%,.
-3.6%,CSc1ccc(CN(C)C(=O)C(c2ccccc2)c2ccccc2)cc1,5%,-8%,.
6.7%,O=C(OCC(=O)C12CC3CC(CC(C3)C1)C2)c1cccnc1Cl,-7%,-8%,4

Quoted from the listing:
miR-21 FLuc, `Cc1ccc(NC(=O)CSc2nnc(C)c(=O)n2N)cc1Cl` → -2%
miR-21 FLuc, `O=C(OCC(=O)C12CC3CC(CC(C3)C1)C2)c1cccnc1Cl` → -7%
Rango release inh, `O=C(O)c1cccc(N/N=C/c2cccc3ccccc23)c1` → -12%
Rango release inh, `Cc1cc(Cl)ccc1OCCCC(=O)Nc1ccc(S(=O)(=O)Nc2ncccn2)cc1` → -18%

(next part)
Rango complex inh,canonical_smiles,miR-21 FLuc,Rango release inh,GLA inh pH 4.5
?,O=C(O)Cc1ccc(C(=O)c2cccs2)s1,-7%,?,3
-2.6%,COc1ccc(C2/C(=C(\O)c3ccc4c(c3)OCCO4)C(=O)C(=O)N2CCCn2ccnc2)cc1 (configuration not stated),-8%,?,.
1.7%,c1ccc2[nH]c(-c3ccncc3)nc2c1,-24%&-30%,-10%,3&-1
-0.9%,CSc1nc2ccc(Br)cc2[nH]1,-25%,-4%,12
2.8%,CCCCN1C(=O)C(O)(CC(=O)c2c(C)coc2C)c2ccccc21 (configuration not stated),-3%,-1%,4
-0.7%,O=C1CC(NNc2ccccc2)C(=O)N1c1ccc(N2CCCCC2)cc1 (configuration not stated),-25%,1%,5
2.0%,Cc1ccc(C(=O)Nc2ccc(OCc3ccccc3)cc2)s1,-20%,1%,.
-1.5%,COc1ccc(S(=O)(=O)N2CCCCC2)cc1NC(=O)c1ccc(CS(C)(=O)=O)cc1,.,1%,.
-0.5%,CCCCSc1nnc(-c2ccc(NC(=O)CC)cc2)n1C,-3%,-26%,7
4.2%,CCOc1cc(C(=S)N2CCCC2)ccc1OC(=O)Cc1ccc(F)cc1,0%,2%,0
0.0%,CCOC(=O)/C(=N\Nc1ccccc1)S(=O)(=O)c1ccccc1,0%,-10%,-8
0.4%,Cc1ccc(-n2nc3c(=O)n(CC(=O)NCc4ccc(C)o4)nc(C)c3c2C)cc1,0%,5%,.
0.2%,CCn1cc(C(=O)NCC2CCCO2)c(=O)c2cc(S(=O)(=O)N3CCCCC3)ccc21 (configuration not stated),-2%,-1%,-3
0.3%,O=C(O)c1cccc(-c2ccc3c(c2)OCO3)c1,-11%,0%,.
1.2%,Cc1ccc(CC(=O)Nc2nc3c(s2)CCCC3)cc1,-2%,5%,-2
4.6%,COc1ccccc1NC(=O)CCSc1nnc(-c2ccc(O)cc2)o1,-22%,-2%,-23
1.5%,COc1ccc(-c2nc(CS(=O)(=O)CC(=O)NCc3ccccc3OC)c(C)o2)cc1,0%,-7%,.
8.2%,CN(Cc1ccccc1)C(=O)c1cccc(NC(=O)Cc2ccc(NC(=O)C3CCN(S(=O)(=O)c4cccc([N+](=O)[O-])c4)CC3)cc2)c1,.,0%,.
1.3%,CCC(C)(C)NC(=O)C(c1ccccc1)N(C(=O)c1csnn1)C1CC1 (configuration not stated),-1%,-14%,1
0.6%,Cc1cnc(NC(=O)CC(C)c2ccccc2)s1 (configuration not stated),0%,10%,.
-3.3%,COc1ccc([C@@H]2[C@@H]3C(=O)N(C(C)(C)C)C(=O)[C@@H]3[C@]3(C)C(=O)N(c4ccc(C(F)(F)F)cc4)C(=O)N23)cc1,-24%,13%,.
-1.5%,CCC(=O)Nc1ccc(NC(=S)NC(=O)/C=C/c2ccco2)cc1,15%,-1%,.
?,Nc1c(C(=O)Nc2nccs2)sc2nc(-c3cccs3)cc(C(F)(F)F)c12,-17%,?,-2
-0.3%,Cc1ccc(NC(NC(=O)c2cccs2)C(Cl)(Cl)Cl)cc1 (configuration not stated),5%,4%,-9
-1.9%,COc1ccccc1CCC(=O)Nc1ccc(OC)c(S(=O)(=O)N2CCCCC2)c1,.,-1%,.
1.9%,C=C(c1ccccc1)c1ccccc1N,.,0%,.
-4.5%,COc1ccc2nc(NC(=O)c3ccccc3F)sc2c1,-15%,0%,.
0.2%,CCCCn1c(N)c(N(CCOC)C(=O)CCNC(=O)c2ccc(Br)cc2)c(=O)[nH]c1=O,.,-15%,.
-0.8%,O=C(CNC(=O)c1ccccc1)NCc1nc2ccccc2[nH]1,.,14%,.
-3.0%,CCN(CC)CCCNC(=O)Cn1cnc2sc(C)c(S(=O)(=O)N3CCN(c4ncccn4)CC3)c2c1=O,1%,-6%,5
0.1%,COc1ccc(OC)c(-c2cc(C(=O)N/N=C/c3ccc(F)cc3)c3ccccc3n2)c1,.,16%,.
1.4%,Cn1cnnc1SCC(=O)Nc1ccc(Oc2ccccc2)cc1,-1%,31%,.

Another view of some results above:
molecule: CCN(CC)CCCNC(=O)Cn1cnc2sc(C)c(S(=O)(=O)N3CCN(c4ncccn4)CC3)c2c1=O
  Rango complex inh: -3.0%
  miR-21 FLuc: 1%
  Rango release inh: -6%
  GLA inh pH 4.5: 5
molecule: COc1ccccc1CCC(=O)Nc1ccc(OC)c(S(=O)(=O)N2CCCCC2)c1
  Rango complex inh: -1.9%
  miR-21 FLuc: .
  Rango release inh: -1%
  GLA inh pH 4.5: .
molecule: COc1ccc(OC)c(-c2cc(C(=O)N/N=C/c3ccc(F)cc3)c3ccccc3n2)c1
  Rango complex inh: 0.1%
  miR-21 FLuc: .
  Rango release inh: 16%
  GLA inh pH 4.5: .

Continuation:
Rango complex inh,canonical_smiles,miR-21 FLuc,Rango release inh,GLA inh pH 4.5
?,CN(C)c1ccc(/C=C2\CCC/C(=C\c3ccccc3)C2=O)cc1,-11%,?,-2
0.3%,O=C(Nc1c(F)cccc1F)c1ccc(-n2cncn2)nc1,-16%,-13%,9
1.4%,COc1ccc(C(=O)NNC(=O)Cc2ccc(-c3ccccc3)cc2)cc1OC,-3%,-2%,-5
-0.6%,CCOc1ccc(OCC)c(NC(=O)c2nnn(CC(=O)Nc3cc(C)cc(C)c3)c2N)c1,-1%,-15%,.
-1.5%,CCN1CCN(C(=O)c2ccc(OC3CCN(CCc4ccccc4)CC3)cc2)[C@@H](C)C1=O,-4%,-2%,.
0.0%,CCN(c1ccccc1)S(=O)(=O)c1cccc(C(=O)OCC(=O)Nc2ccc(NC(C)=O)cc2)c1,.,-2%,.
6.4%,O=C(NC(=S)Nc1cc(S(=O)(=O)N2CCOCC2)ccc1O)c1ccco1,-4%,15%,-2
-1.3%,Cc1nc(C)c(-c2csc(Nc3ccc(O)c(C(=O)O)c3)n2)s1,-4%,-13%,.
-1.5%,CCCC(C)NC(=O)COC(=O)c1ccc2c(c1)C(=O)N(Cc1ccco1)C2=O (configuration not stated),8%,13%,.
-0.9%,CC(=O)Nc1nonc1-c1nc2ccccc2n1C,1%,22%,.
1.5%,O=C1CNC(=O)/C(=C\c2ccccc2)N1,0%,1%,.
?,CCCCOC(=O)C1CN(c2ccccc2)N=C1C(=O)OCC (configuration not stated),-7%,-26%,4
-0.1%,O=c1c2ccccc2nc(SCCN2CCOCC2)n1CCc1ccccc1,0%,17%,-5
0.5%,Cc1c(C(=O)Nc2ccc(Cc3ccncc3)cc2)cccc1[N+](=O)[O-],22%,1%,7
-0.4%,Cc1c(N2C(=O)C3C4C=CC(C4)C3C2=O)c(=O)n(-c2ccccc2)n1C (configuration not stated),-1%,16%,-19
-5.6%,CC(=O)N1c2ccc(S(=O)(=O)NCCC(=O)NC3CCCC(C)C3C)cc2CC1C (configuration not stated),10%,-6%,.
0.2%,CCC(=O)c1ccc(OCC(=O)OCC(=O)N2CCc3ccccc3C2)cc1,.,2%,.
5.6%,O=C(NCCC(=O)N1CCC2(CC1)NCCc1[nH]cnc12)c1ccc(F)c(F)c1,-1%,0%,.
2.7%,Fc1cccc(Nc2ncnc3c2cnn3-c2ccccc2)c1,-8%,-11%,-1
-0.4%,Cc1ccc([C@@H]2[C@@H]3C(=O)N(C)C(=O)[C@@H]3[C@]3(C)C(=O)N(CC4CC4)CC(=O)N23)o1,-2%,1%,.
-4.6%,CC(C)C[C@H](NC(=O)c1[nH]cnc1C(=O)N[C@@H](Cc1ccccc1)C(=O)OC(C)(C)C)C(=O)OC(C)(C)C,14%,-11%,-26
-0.7%,Cc1csc(NC(=O)c2ccc3c(c2)OCO3)n1,-23%,8%,.
-3.5%,COc1cccc(C(O)CC(N)=O)c1 (configuration not stated),0%,-15%,7
-0.7%,CCOc1ccc(C(=O)C(C)OC(=O)Cn2cnc3c2c(=O)n(C)c(=O)n3C)cc1 (configuration not stated),.,25%,.
-2.4%,Cc1ccc(C2=NN(C(=O)CNCCO)C(c3cccs3)C2)cc1 (configuration not stated),-60%,-7%,.
?,CCCNc1nc2nc3ccccn3c(=O)c2cc1C(=O)NCCN1CCOCC1,0%,?,.
1.2%,Cc1c(CC(=O)O)c(=O)oc2c(C)c(OCc3ccc(F)cc3F)ccc12,-2%,0%,.
0.7%,CC(C)Cc1ccc(CN2CCCC(NC(=O)c3cccc(-n4cnnc4)c3)C2)cc1 (configuration not stated),9%,-3%,.

An excerpt; the hit share may differ from the screen's.
